Screening results from PubChem BioAssay.
TRPV1 PAM – HTS Assay for Compounds that Act as Potentiators of the Vanilloid Receptor 1; hit rate 0.02% among 320,000; potentiation, % at 8.33 µM; Transient receptor potential cation channel subfamily V member 1 (Homo sapiens), Q8NER1; TRPV1-expressing cells, Fluo-8 calcium influx, capsaicin EC20 potentiation; host cell line not named in the record; control for the full effect not named in the record; active means potentiation above 80%; inconclusive means 30% to 80%; inactive means below 30%; further: 0% is about no effect
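Cells expressing TRPV1 were dye-loaded with Fluo-8 and read kinetically: 10 s baseline, 3 min after compound (agonist portion), then 2 min after EC20 capsaicin (allosteric enhancer portion). Calcium-bound dye fluorescence at 480/520 nm.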
TRPML1 agonist – qHTS for Agonists of the Human Mucolipin Transient Receptor Potential 1 (TRPML1); activation, % (concentration not given with the values); Mucolipin-1 (Homo sapiens), Q9GZU1; TRPML1-expressing cells, Ca2+ dye fluorescence, FDSS; host cell line not named in the record; reference of the full effect not given here; hit rate 0.12% among 410,000; in the data active = activation above about 50%; inconclusive = about 30% to 50%; inactive = below about 30%; further: 0% is about no effect; the text of the record puts the active cut at 80%
Target sequence (Q9GZU1 whole entry, looked up): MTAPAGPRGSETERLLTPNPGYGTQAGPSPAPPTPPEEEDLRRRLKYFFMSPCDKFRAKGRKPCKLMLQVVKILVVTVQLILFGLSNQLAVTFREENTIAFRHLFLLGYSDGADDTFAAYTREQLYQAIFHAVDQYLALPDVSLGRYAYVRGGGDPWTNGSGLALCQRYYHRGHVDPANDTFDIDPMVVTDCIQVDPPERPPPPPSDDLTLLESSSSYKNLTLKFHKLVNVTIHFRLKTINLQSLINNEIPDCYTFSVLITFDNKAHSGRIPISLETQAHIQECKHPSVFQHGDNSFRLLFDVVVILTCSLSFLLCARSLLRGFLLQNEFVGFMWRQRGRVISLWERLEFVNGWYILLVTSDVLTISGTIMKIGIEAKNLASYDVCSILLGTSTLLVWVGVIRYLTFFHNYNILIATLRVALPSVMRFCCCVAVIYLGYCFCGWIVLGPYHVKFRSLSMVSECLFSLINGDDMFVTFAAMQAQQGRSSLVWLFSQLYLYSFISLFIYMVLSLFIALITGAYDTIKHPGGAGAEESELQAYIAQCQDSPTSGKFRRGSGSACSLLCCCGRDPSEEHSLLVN
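Agonist activity was taken from a 110 s kinetic Ca2+ dye read on the FDSS after pinning compounds onto TRPML1-DL cells. The cells were seeded at 1,500/well with Tet inducer, incubated about 16 h, then dye-loaded at room temperature.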
D2 PAM – Beta-Arrestin HTS for Positive Allosteric Modulators of the Human D2 Dopamine Receptor: Potentiators; D(2) dopamine receptor (Homo sapiens), P14416; DiscoveRx D2 beta-arrestin cells, luminescence, 90 min; 100% = 57 uM dopamine signal; potentiation, % (concentration not given with the values); hit rate 0.23% among 360,000; active = potentiation of 50% or more; inconclusive = 30% to 50%; inactive = 30% or less;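 further: compound concentration not given in the record; tested on top of an EC20 dose of dopamine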
Target sequence (P14416 whole entry, looked up): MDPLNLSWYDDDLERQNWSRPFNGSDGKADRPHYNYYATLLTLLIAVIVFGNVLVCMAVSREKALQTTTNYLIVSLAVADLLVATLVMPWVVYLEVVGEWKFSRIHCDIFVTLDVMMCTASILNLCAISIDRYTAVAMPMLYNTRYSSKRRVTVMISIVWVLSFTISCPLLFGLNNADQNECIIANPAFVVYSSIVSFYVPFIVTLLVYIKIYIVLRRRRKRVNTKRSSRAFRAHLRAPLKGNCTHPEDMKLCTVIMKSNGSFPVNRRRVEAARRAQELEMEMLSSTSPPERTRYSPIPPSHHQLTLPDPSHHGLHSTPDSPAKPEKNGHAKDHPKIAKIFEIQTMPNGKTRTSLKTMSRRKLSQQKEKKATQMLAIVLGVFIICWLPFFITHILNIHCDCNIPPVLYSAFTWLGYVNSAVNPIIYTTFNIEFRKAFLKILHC
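PathHunter beta-arrestin assay in DiscoveRx D2 cells. Compounds were added with an EC20 of dopamine (50 nM final) for 90 min at 37 deg C. Luminescence was read 1 h after detection reagent, with 57 uM dopamine as the EC100 control.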
CtBP-E1A inh – qHTS Assay for Inhibitors of the CtBP/E1A Interaction | CtBP / adenovirus E1A interaction (AlphaScreen) | AlphaScreen GST-E1A/His-CtBP binding, 1536-well; stronger effect = lower value; control for the full effect not named in the record | activity change, % (concentration not given with the values) | hit rate 0.49% among 340,000 | AID 651724, 2012; in the data active means activity change below about -65%; inconclusive means about -30% to -65%; inactive means above about -30%; further: on the % scale 0 is the no-effect control and ±100 the full control effect
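AlphaScreen with 125 nM GST-E1A and 125 nM His-CtBP (5X stocks) in Tris pH 8.0, 300 mM NaCl, BSA, Tween 20, TCEP. Compounds preincubated 2 h at 37 deg C, then glutathione donor/nickel acceptor beads added for 1 h at 37 deg C in dark.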
TRPML1 inh – qHTS for Inhibitors of the Human Mucolipin Transient Receptor Potential 1 (TRPML1); activity change, negative = inhibition, % (concentration not given with the values); TRPML1-inducible cells, Ca2+ dye fluorescence, FDSS; stronger effect = lower value; inhibition of EC80 agonist-evoked calcium signal; hit rate 0.02% among 390,000; AID 624415, 2012; in the data active means activity change below about -50%; inconclusive means about -30% to -50%; inactive means above about -30%;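 further: stimulus is agonist 54-4 at its EC80 concentration; on the % scale 0 is the no-effect control and ±100 the full control effect; compound concentration not given in the record; the text of the record puts the active cut at -80%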
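TRPML1-DL cells, Tet-induced overnight (~16 h, 37 °C) at 1,500 cells/well, were loaded with Ca8 no-wash dye plus quencher for 45-90 min at room temperature. Compounds were pinned during FDSS kinetic reading; agonist 54-4 at EC80 (4 uM final) then added.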
Six1-Eya2 inh – qHTS Assay for Inhibitors of the Six1/Eya2 Interaction. Homeobox protein SIX1 (Homo sapiens) + Protein phosphatase EYA2 (Homo sapiens), …. hit rate 0.56% among 360,000. AlphaScreen GST-Six1/His-Eya2 binding, biochemical; stronger effect = lower value; control for the full effect not named in the record. activity change, % (no concentration beside the values). AID 651725, 2012; in the data active = activity change below about -65%; inconclusive = about -30% to -65%; inactive = above about -30%; further: on the % scale 0 is the no-effect control and ±100 the full control effect; compound concentration not given in the record
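AlphaScreen with GST-Six1 and His-Eya2 (5X mix: 250 nM and 500 nM), glutathione donor and nickel acceptor beads; buffer 50 mM Tris pH 8.0, 300 mM NaCl, 1 mM TCEP; 1 h at 37 C in the dark.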
* = called active by the depositor; ? = inconclusive; nt = no result given; & = joins results of further samples.

SMILES | TRPV1 PAM | TRPML1 agonist | D2 PAM | CtBP-E1A inh | TRPML1 inh | Six1-Eya2 inh
CCC(Oc1ccccc1)C(=O)Nc1cc(C)on1 (stereo unspecified) | 15 | -0.2 | -11 | 6 | 27 | 0
COc1cccc(CNc2nc(NCc3ccccc3OC)nc3ccsc23)c1 | nt | -0.6 | -14 | -8 | nt | -10
CCOc1ccc(CNC2CCCCCCC2)cc1OC | 2 | 1.0 | -2 | 3 | 7 | 1
C[C@H]1CCCCO[C@@H](CN(C)S(=O)(=O)c2ccc(F)cc2)[C@@H](C)CN([C@@H](C)CO)C(=O)c2cc(NC(=O)Nc3ccc4c(c3)OCO4)ccc2O1 | nt | -0.5 | -5 | -9 | -8 | 7
CCN(C(=O)CSc1ncn[nH]1)c1c(N)n(Cc2ccccc2)c(=O)[nH]c1=O | 2 | -0.1 | -9 | -10 | 7 | 4
COCCNc1nc(C(C)(C)C)nc2c1nnn2Cc1ccccc1Cl | -33 | -0.2 | -13 | 2 | 0 | 4
COC(=O)c1ccc(CSc2ccc3nnc(-c4cccc(F)c4)n3n2)o1 | 8 | 2.5 | -10 | ? | 1 | -11
COC(=O)c1ccccc1S(=O)(=O)N1CCC(C(=O)NC2=NCCS2)CC1 | -6 | -0.3 | -1 | -23 | 10 | -3
CC1CCN(CC(=O)N2CCN(c3ccccc3)CC2)CC1 | ? | 0.6 | -6 | 7 | -3 | 1
CCOc1ccc(-c2cn[nH]c2N)cc1 | 10 | 1.4 | -6 | -2 | 29 | -2
Cc1cccc(OCC(=O)N=Nc2c(O)[nH]c3ccc([N+](=O)[O-])cc23)c1 | 10 | 1.6 | -12 | nt | 0 | -3
Oc1ccccc1-n1c(-c2ccccc2)ccc1-c1ccccc1 | -15 | 1.4 | 23 | nt | -7 | ?
Cc1cccnc1NC(=O)Cn1c(=O)oc2ccccc21 | -12 | -0.6 | -33 | 0 | -6 | 0
S=C(NCc1ccco1)N1CCN(C/C=C/c2ccccc2)CC1 | 0 | 0.5 | -15 | -3 | 7 | -15
Oc1ccc(NC(=S)Nc2ccccc2)cc1 | -14&-5 | 0.6&-0.2 | 0&-5 | 2 | -23&1 | 5&-3
COc1ccccc1N1CCN(C(=O)c2nn(-c3ccccc3OC)c(=O)c3ccccc23)CC1 | 20 | 0.8 | -3 | -1 | 13 | -1
CCOc1ccc(C(=O)c2ccccc2C(=O)O)cc1OCC | 1 | 0.9 | -1 | -3 | -1 | 9
S=c1nc(-c2ccccc2Cl)n(Cc2cccnc2)c2c1CCCC2 | 1 | -0.6 | -8 | -15 | -2 | -11
N#Cc1ccc(OCC(=O)OCC(=O)c2ccc[nH]2)cc1 | 7 | 0.2 | -8 | 0 | -6 | 3
CCN1C(=O)c2cccc3c(S(=O)(=O)NCc4ccco4)ccc1c23 | 18 | 0.4 | 3 | 2 | -4 | -11
COc1ccc(C=NNC(=O)CCCCC(=O)NN=Cc2ccc(OC)cc2)cc1 | nt | -0.7 | -2 | 6 | 3 | -2
C/C(=N\OC(=O)Nc1ccccc1)c1ccc(C)cc1 | nt | -0.3 | -5 | 5 | -6 | -17
CC(C)CN(C(=O)c1cccc(S(=O)(=O)N2CCN(Cc3ccccc3)CC2)c1)C1CCS(=O)(=O)C1 (stereo unspecified) | -17 | 0.8 | -3 | -22 | -4 | 5
COCc1ccc(-c2c(-c3ccsc3)oc(=O)c3cc(OC)c(OC)cc23)cc1 | nt | 1.3 | -5 | 2 | 34 | 3
CC(C)C(C)NC(=O)CSc1nc2scc(-c3ccco3)c2c(=O)n1-c1ccccc1 (stereo unspecified) | 2 | 2.0 | -4 | -11 | -13 | 5
SMILES | TRPV1 PAM | TRPML1 agonist | D2 PAM | CtBP-E1A inh | TRPML1 inh | Six1-Eya2 inh
C[C@H]1CCC[C@@]2(O[C@@H](CCO)C[C@@H](O)[C@@H]2O)O1 | 2 | 0.4 | -6 | 3 | -17 | 5
O=C(O)C1CCC(=O)N1C1CCCC1 (stereo unspecified) | -2 | -0.4 | -6 | -5 | 19 | 15
CC1(C2CC2)NC(=O)N(CC(=O)N2CCN(c3cccc(C(F)(F)F)c3)CC2)C1=O (stereo unspecified) | nt | 0.5 | -16 | -5 | 3 | -5
COc1ccc(N/C=C(\C=C\C#N)S(=O)(=O)c2ccccc2)cc1 | 19 | 0.4 | -13 | nt | 0 | 0
Cc1cccc(C(=O)NNC2=C(C(=O)C(F)(F)F)CCC2)c1O | 1 | -0.3 | -25 | -25 | -4 | -2
Cc1cccn2cc(CCNS(=O)(=O)c3ccc([N+](=O)[O-])cc3)nc12 | -11 | -0.3 | 4 | 1 | -15 | -1
CC1CC(c2ccccc2)=Nc2ccccc2N1 (stereo unspecified) | -12 | 1.0 | 2 | -9 | 6 | 1
Brc1c(CSc2nc3ccccc3o2)nc2ncccn12 | -8 | -0.1 | -25 | 2 | 20 | -4
Cc1nc2c(n1C1CCCCC1)C(=O)c1ccccc1C2=O | -6 | 65* | 21 | 2 | -4 | -1
Cc1ccc(C(=O)N(Cc2nc3ccccc3c(=O)[nH]2)C2CCCC2)cc1 | 6 | 0.5 | -3 | -2 | -7 | 1
Cc1c(N)cccc1[N+](=O)[O-] | -9 | 0.2 | -8 | -4 | 4 | 1
Cc1cccc(C(=O)Oc2cccc3c(O)cccc23)c1 | -12 | 1.2 | -1 | -3 | 55 | 1
COc1ccc(N2CCCC2=N)c(OC)c1 | 2 | -0.5 | -18 | nt | 25 | 8
CCOc1ccc(-n2ccnc2SCC(=O)N2CCCc3ccccc32)cc1 | 22 | 0.8 | -28 | -11 | -9 | -7
COC(=O)CCCC(=O)NC(C)c1cnn(-c2ccccc2C)c1C (stereo unspecified) | 0 | -0.6 | 0 | -8 | 31 | 12
CCCOc1nc2c(c(=O)n(C)c(=O)n2C)n1C | -38 | 0.3 | -9 | -1 | -4 | -6
CCN1CCN(C(=O)c2c(-c3c(F)cccc3Cl)noc2C)CC1 | 18 | 0.1 | -1 | 2 | 0 | -4
COCCNS(=O)(=O)c1ccc(-c2ccc(Cl)cc2)cc1 | -9 | -0.4 | 3 | -16 | 0 | 12
O=[N+]([O-])c1cccc(/C=N/Nc2nc(N3CCCCC3)nc(N3CCCCC3)n2)c1 | 1 | -0.4 | -3 | 6 | 4 | 1
CC(C)(C)C(=O)Nc1ccc(F)cc1[N+](=O)[O-] | 6 | -0.5 | -13 | nt | -5 | -3
O=C(CSCC(=O)NC1CC1)Nc1ccc2ccccc2c1 | -7 | 1.6 | -29 | 6 | -8 | 3
Cc1ccc(-n2cc(CNCCn3nc(C)cc3C)c(-c3ccc(F)cc3)n2)cc1 | -2 | 1.2 | -22 | -3 | -1 | 2
C/C(=N\NC(=O)CNC(=O)c1ccc(F)cc1)c1ccco1 | -16 | 0.5 | -13 | nt | 11 | 6
COc1cccc(NC(=O)CN2C(=O)NC3(CCCc4ccccc43)C2=O)c1 (stereo unspecified) | -1 | 0.4 | -2 | 7 | 2 | 0
CC(C)CCn1c(=O)c2sccc2n2c(CCCC(=O)N3CCC(N4CCCCC4)CC3)nnc12 | -9 | 1.5 | -8 | nt | -9 | -3

6 entries from above, with values under each structure:
Under each structure: TRPV1 PAM	TRPML1 agonist	D2 PAM	CtBP-E1A inh	TRPML1 inh	Six1-Eya2 inh
> Cc1cccc(C(=O)NNC2=C(C(=O)C(F)(F)F)CCC2)c1O
  1	-0.3	-25	-25	-4	-2
> Cc1cccn2cc(CCNS(=O)(=O)c3ccc([N+](=O)[O-])cc3)nc12
  -11	-0.3	4	1	-15	-1
> CC1CC(c2ccccc2)=Nc2ccccc2N1 (stereo unspecified)
  -12	1.0	2	-9	6	1
> Brc1c(CSc2nc3ccccc3o2)nc2ncccn12
  -8	-0.1	-25	2	20	-4
> Cc1nc2c(n1C1CCCCC1)C(=O)c1ccccc1C2=O
  -6	65*	21	2	-4	-1
> Cc1ccc(C(=O)N(Cc2nc3ccccc3c(=O)[nH]2)C2CCCC2)cc1
  6	0.5	-3	-2	-7	1

Pulled by compound from the entries so far (2):
SMILES | TRPV1 PAM | TRPML1 agonist | D2 PAM | CtBP-E1A inh | TRPML1 inh | Six1-Eya2 inh
Cc1cccc(OCC(=O)N=Nc2c(O)[nH]c3ccc([N+](=O)[O-])cc23)c1 | 10 | 1.6 | -12 | nt | 0 | -3
COc1ccc(N2CCCC2=N)c(OC)c1 | 2 | -0.5 | -18 | nt | 25 | 8

Going on with the list.
SMILES | TRPV1 PAM | TRPML1 agonist | D2 PAM | CtBP-E1A inh | TRPML1 inh | Six1-Eya2 inh
CCOC(=O)N1CCC(N2C(=O)c3cc(C(=O)NC4CCCCC4)ccc3C2O)CC1 (stereo unspecified) | nt | -0.1 | -3 | 4 | 14 | 4
COc1cc(OC)c(C(=O)/C=C/c2ccc(OCc3ccccc3)c(OC)c2)c(OC)c1 | -2 | -0.7 | 0 | -3 | 11 | -20
CCOc1cccc(CN2CCC(n3nccc3NC(=O)C3CC3)CC2)c1O | -3 | -0.3 | -16 | 4 | -11 | -5
Cc1cccc(OCc2ccccc2)n1 | nt | 0.1 | -1 | 8 | -8 | 6
COc1ccc(NCc2nnc(-c3ccccc3)o2)cc1 | -16 | 2.8 | -8 | nt | 2 | -16
CCOC(=O)C1=C(CC)Nc2ccccc2N/C1=N\S(=O)(=O)c1cccc(C(C)=O)c1 | nt | -1.1 | 10 | nt | 1 | 3
COc1cc(CNC2CCCC2)cc(OC)c1 | 3 | 1.1 | -1 | 6 | 45 | -1
C=CCOC(=O)N1CCC2CC1c1cc(-c3ccc(OC)cc3)ccc12 (stereo unspecified) | nt | 2.9 | -6 | 13 | 13 | 14
Cc1ccc(CNc2ncc(-c3ccccc3)n2C)o1 | 2 | 0.0 | -18 | nt | -11 | -16
COCCn1c(C23CC4CC(CC(C4)C2)C3)n[nH]c1=S | -11 | 0.4 | 3 | 2 | -2 | -5
O=C(COC(=O)Cc1ccc(F)cc1)Nc1cc(S(=O)(=O)N2CCOCC2)ccc1N1CCCC1 | 1 | -0.5 | -12 | -10 | -2 | 0
COc1ccccc1CNC(=O)c1ccccc1OCc1ccc(F)cc1 | -10 | 2.1 | 13 | 6 | 18 | 2
COc1ccc(N2C(=O)CC(Sc3nc4c(cc3C#N)CCC4)C2=O)cc1 (stereo unspecified) | 9 | 0.1 | -15 | 8 | 0 | -3
NC(=O)C(c1ccccc1)C1CCCC1 (stereo unspecified) | 4 | 0.0 | -3 | -1 | -9 | 16
CCC[C@H]1COCCS(=O)(=O)N1Cc1ccccc1F | 22 | -0.4 | -1 | -21 | -2 | 2
COc1cccc(-c2cc(C(=O)Nc3ccccc3)c3ccccc3n2)c1 | nt | 0.4 | -2 | 0 | 15 | -2
COC(=O)c1c(CCl)noc1C(=O)NCC1CCCO1 (stereo unspecified) | 13 | 0.3 | -13 | -5 | -21 | 10

Random draw from the library; 0.95% or so of the library scored in one or more.
